H5N1 antiviral – antiviral screen in MDCK cells, H5N1 avian flu. cytopathic effect, luminescence, 72 h; hits give high values; no value below 0 was filed and about half of the inactive calls have no number; reference of the scale not given here. inhibition, % at 50 µM. 96,000 tested, 0.07% active; in the data active means inhibition above about 25%
* marks the source's active call; other numbers are inactive results; i = inactive. Only part of the results is shown; count on the stated rates, not on these rows.

SMILES	H5N1 antiviral
COc1cc(C(=O)Nc2sc3c(c2C#N)CCN(C(C)=O)C3)cc(OC)c1OC	i
CCOc1cc(-c2conc2N)cc(OCC)c1OCC	0.5
O=C(CN1CCN(Cc2ccccc2)CC1)Nc1ccc(Cl)cn1	i
Cc1ccc(CN2CC(C(=O)O)CC2=O)cc1 (configuration not stated)	0.4
Cc1oc(-c2ccccc2Cl)[n+]([O-])c1C	0.7
Cc1nnc(NC(=O)CSc2nnc3scc(-c4ccc(C)c(C)c4)n23)s1	2.9
CC(=O)Nc1nc(CC(C)C)cc2c1c(=O)oc1ccccc12	0.8
Cc1cc(=O)oc(C)c1C(=O)N1CCN(c2ccc(F)cc2)CC1	0.1
COC(=O)CNC(=O)Cn1cnc2sc(C)c(S(=O)(=O)N3CCC(C)CC3)c2c1=O	1.6
COc1ccc(S(=O)(=O)N2CCOCC2)c(Cl)c1Cl	0.2
CCC(C)(C)NC(=O)C(c1ccc(F)cc1)N(Cc1ccco1)C(=O)c1snc(C(N)=O)c1N (configuration not stated)	i
O=C1c2ccccc2C(Nc2cccnc2)N1Cc1ccccc1Cl (configuration not stated)	0.3
c1cc(-c2nn[nH]n2)ccc1CN1CCCCC1	0.7
COc1ccc(CCC(N)=O)cc1OC	1.1
O=C(NCCc1ccc(Cl)cc1)C1CCC(=O)N1Cc1ccc(F)cc1 (configuration not stated)	i
O=C1CCSc2ccc(Cl)cc2N1Cc1cccc(Cl)c1	0.5
Cc1ccc(-n2c(-c3c(-c4ccccc4)noc3C)n[nH]c2=S)cc1	i
CS(=O)(=O)N1CCN(C(=O)c2cc(-c3ccncc3)nc3ccc(Cl)cc23)CC1	0.2
O=S(NC1CCCCC1)C12CC3CC(CC(C3)C1)C2 (configuration not stated)	1.1
O=C(CSc1nc2ccccc2n1CC(=O)N1CCCC1)NCc1ccc2c(c1)OCO2	0.7
CN1C(=O)C(Cc2ccsc2)C(=O)N(C)C1=O	0.1
Cc1ccc(SCCNC(=O)c2ccccc2C)cc1	0.3
CCOC(=O)CCC(=O)N1CCOCCOCCN(C(=O)CCC(=O)OCC)CCOCCOCC1	i
CCCc1cc(=O)[nH]c(SCC(=O)c2cc(C)n(CCOC)c2C)n1	1.1
O=C(Nc1ccc(Cl)cc1)OCc1cncs1	i
C=CCN(CC=C)C(=O)Cc1ccc(F)cc1	i
O=C(CSc1ncccn1)NCc1ccccc1Cl	i
O=C1c2ccccc2-c2onc3c(Oc4ccccc4)cc(O)c1c23	i
CC(C)(C)C(=O)Nc1ccc2c(c1)-c1cc(NC(=O)C(C)(C)C)ccc1C2	0.2
Cc1nc(-c2cccc(S(=O)(=O)N3CCC(C)CC3)c2)cs1	1.4
Cc1ccc(CCNC(=O)C2CCCN(C(=O)N(C)C)C2)cc1 (configuration not stated)	i
CS(=O)(=O)N1CCN(c2ccccc2NC(=O)c2ccc(Br)o2)CC1	0.8
Oc1ccc2ccccc2c1CN1CCN(c2ccccc2)CC1	0.9
COc1cccc(C(=O)OCn2nnc3ccccc3c2=O)c1	0.1
COc1ccc(C(=O)CC2(CC(=O)c3ccc(OC)cc3)C(=O)N(C)C(=O)N(C)C2=O)cc1	i
COc1ccc(C(=O)NC(=S)Nc2ccc([N+](=O)[O-])cc2C)cc1OC	i
Cc1nn(-c2ccccc2)c(Cl)c1C(=O)Nc1nnc(C2CCCCC2)s1	i
COC(=O)c1cccc(S(=O)(=O)N2CCC(NC(=O)NC34CC5CC(CC(C5)C3)C4)CC2)c1	i
COc1cccc(-c2ccc(-c3noc(-c4ccccc4F)n3)c(OC)n2)c1	i
C=C(C)CN(CC)C(=O)CSc1nc2ncc(Cl)cc2[nH]1	i
Cc1nnc(NC(=O)C2CCN(c3cnccn3)CC2)s1	i
O=C(CCl)Nc1cc(-c2ccccc2)nn1-c1ccccc1	i
CCOC(=O)C1CCN(C(=O)CSc2cc(=O)n(C)c3ccccc23)CC1	i
CCOC(=O)N1CCN(S(=O)(=O)c2ccc(Br)s2)CC1	1.0
O=C(OCCN1C(=O)c2ccccc2C1=O)c1cc(S(=O)(=O)N2CCOCC2)ccc1Cl	0.8
CCOC(=O)/C(C#N)=C/c1cc(C)n(-c2ccc(C)cc2)c1C	i
COc1ccc2c(c1)CCc1c(C(=O)N3CC4(C)CC3CC(C)(C)C4)noc1-2 (configuration not stated)	i
Cc1cc(C)n(-c2nc(SCCN(C)C)c3c4c(sc3n2)CCCC4)n1	i
COC(=O)c1ccc(N2CCN(S(=O)(=O)c3ccccc3)CC2)c([N+](=O)[O-])c1	2.2
O=C1C2CC=CCC2C(=O)N1CC1CCCO1 (configuration not stated)	0.1
Cc1nnc(SCC(=O)NC(=O)NC2CCCC2)n1N	0.3
COc1cc(C)c(C(C)C)cc1S(=O)(=O)N1CCN(C)CC1	i
COc1ccc(OC)c(C2=NOC(C(=O)Nc3cccc(C(C)=O)c3)C2)c1 (configuration not stated)	0.1
O=C(Cc1ccc(S(=O)(=O)N2CCCC2)s1)NC1CCCCCC1	0.7
CCCCn1c(N)c(C(=O)NCCN2CCOCC2)c2nc3ccccc3nc21	i
FC(F)(F)Oc1ccc(Nc2nc3ccccc3o2)cc1	i
CCN1C(=O)C(O)(CC(=O)c2ccc(-n3cccc3)cc2)c2ccccc21 (configuration not stated)	2.1
CC1CCN(C(=S)NC(=O)C2CCCCC2)CC1	i
O=C1c2ccccc2C2(c3ccc(Cl)cc3)NCCN12 (configuration not stated)	i
CCCc1cc2c(cc1NS(=O)(=O)c1ccc(CCNC(C)=O)cc1)OCO2	i
(list continues)
SMILES	H5N1 antiviral
O=C(Nc1ccc(Br)c2cccnc12)c1ccc(Cn2cc([N+](=O)[O-])cn2)o1	1.6
CC1CCCCN1C(=O)CSc1nc2ccsc2c(=O)n1Cc1ccccn1 (configuration not stated)	14
C/C(Nc1ccc(C)cc1)=C(/C#N)C(N)=O	i
Cc1cc(C)c(C(=O)CC2(O)C(=O)Nc3ccccc32)cc1C (configuration not stated)	0.6
O=C(CSc1ccc(Cl)cc1)Nc1ccccc1N1CCN(C(=O)c2ccccc2)CC1	1.4
O=C(CN1CCC(NC(=O)c2ccc(F)cc2)CC1)NCc1ccccc1F	i
Cc1ccc(-n2c(SCC(N)=O)nnc2-c2ccc(S(=O)(=O)N3CCCCC3)cc2)c(C)c1	2.4
CC(C)(C)OC(=O)N1Cc2ccccc2C[C@H]1C(=O)O	i
COc1cccc(C(=O)Nc2c3c(nn2-c2ccccc2C)CS(=O)C3)c1OC (configuration not stated)	i
CCOC(=O)c1c(NC(=O)CSc2nnc(C)s2)sc2c1CCCCC2	0.5
Cc1cc(NCCCN)nc(-c2ccccc2O)n1	0.7
O=C(CCCn1c(=S)[nH]c2ccccc2c1=O)NC1CCCCC1	0.2
NC1=NC(=O)CC(C(=O)NCCc2ccccc2)S1 (configuration not stated)	i
COC(=O)CC1C(=O)NCCN1C(=O)NC1CCCCC1 (configuration not stated)	0.3
Cn1c(=O)c(-c2ccccc2)nn2c3ccccc3nc12	0.9
O=C(Nc1nccs1)c1cnccn1	2.2
CCOC(=O)N1CCN(C(=O)CN(c2ccc(OC)c(OC)c2)S(C)(=O)=O)CC1	i
O=C(C1CCN(S(=O)(=O)c2ccccc2)CC1)N1CCOCC1	i
O=C(Cc1ccccc1)Nc1cc(C(=O)c2ccccc2)ccc1N1CCOCC1	i
Cc1ccc(OCC(=O)N2CCN(c3nnc(-c4ccc(C)cc4)c4ccccc34)CC2)cc1	i

In the list so far, these have a COOH group.
SMILES	H5N1 antiviral
Cc1ccc(CN2CC(C(=O)O)CC2=O)cc1 (configuration not stated)	0.4
CC(C)(C)OC(=O)N1Cc2ccccc2C[C@H]1C(=O)O	i

Returning to the listing, repeating the 14 entries before the break.
SMILES	H5N1 antiviral
Cc1ccc(-n2c(SCC(N)=O)nnc2-c2ccc(S(=O)(=O)N3CCCCC3)cc2)c(C)c1	2.4
CC(C)(C)OC(=O)N1Cc2ccccc2C[C@H]1C(=O)O	i
COc1cccc(C(=O)Nc2c3c(nn2-c2ccccc2C)CS(=O)C3)c1OC (configuration not stated)	i
CCOC(=O)c1c(NC(=O)CSc2nnc(C)s2)sc2c1CCCCC2	0.5
Cc1cc(NCCCN)nc(-c2ccccc2O)n1	0.7
O=C(CCCn1c(=S)[nH]c2ccccc2c1=O)NC1CCCCC1	0.2
NC1=NC(=O)CC(C(=O)NCCc2ccccc2)S1 (configuration not stated)	i
COC(=O)CC1C(=O)NCCN1C(=O)NC1CCCCC1 (configuration not stated)	0.3
Cn1c(=O)c(-c2ccccc2)nn2c3ccccc3nc12	0.9
O=C(Nc1nccs1)c1cnccn1	2.2
CCOC(=O)N1CCN(C(=O)CN(c2ccc(OC)c(OC)c2)S(C)(=O)=O)CC1	i
O=C(C1CCN(S(=O)(=O)c2ccccc2)CC1)N1CCOCC1	i
O=C(Cc1ccccc1)Nc1cc(C(=O)c2ccccc2)ccc1N1CCOCC1	i
Cc1ccc(OCC(=O)N2CCN(c3nnc(-c4ccc(C)cc4)c4ccccc34)CC2)cc1	i
O=C(NC(=S)Nc1ccc2oc(-c3cccnc3)nc2c1)c1cccc(Cl)c1	i
O=C(CC(=O)NN=C1CCCC1)NCCc1ccccc1	2.3
O=C(c1ccc(S(=O)(=O)N2CCOCC2)cc1)N1CCN=C1SCc1cccnc1	5.8
COc1ccccc1CNC(=O)CCS(=O)(=O)c1cccs1	0.3
CCn1c(SCC(=O)OCc2ccccc2)nc2c1c(=O)n(C)c(=O)n2C	1.5
O=C(CN1CCSCC1)N/N=C/c1ccc(F)c(F)c1	i
Cc1ccc(C(=O)N2CCN(c3ccc(NC(=O)c4cccnc4)cc3)CC2)cc1	i
Cc1c(O)c(CN2CCCC2)cc2c1oc(=O)c1ccccc12	0.9
Cc1ccc(OCC(O)CNC(=O)c2ccccc2C(=O)O)cc1 (configuration not stated)	i
COC(=O)COc1ccc(S(=O)(=O)N2CCN(c3ccccc3F)CC2)cc1C	0.5
O=C(NCc1ccco1)c1cc(-c2ccccc2)nc2ccccc12	i
C=CCOc1ccc(/C(CC)=N/O)c(OC)c1	1.6
O=C(NCc1cccnc1)c1cccn2c(=O)c3sccc3nc12	7.0
CCCCC1(CCCC)NC(=S)N(Nc2ccc(C)cc2)C1=O	i
Cc1cc(C)nc(SCC(=O)Nc2ncc3c(n2)CCCC3=O)n1	1.8
CCOC(=O)C1CCN(c2c(NCCCN(CC)c3ccccc3)c(=O)c2=O)CC1	0.9
COc1cc2c(=O)n(Cc3ccccc3)c(=O)n(CC(=O)NCCc3ccccc3)c2cc1OC	i
O=C(Nc1cccc(Cl)c1)OCc1ccccn1	1.2
CC(C)(C)c1ccc(C(=O)CSc2nc3ccccc3c(=O)[nH]2)cc1	i
CCOC(=O)N1CCN(C(=O)c2ccc3c(c2)ncn3C2CCCC2)CC1	0.5
CCOC(=O)CSc1nnc([C@@H](NC(=O)OC(C)(C)C)C(C)C)o1	i
FC(F)Oc1ccc(NC(=S)NN2CCOCC2)cc1	i
CC1(c2ccccc2)CC(C)(C)N(C(=O)C2CCCO2)c2ccccc21 (configuration not stated)	i
Cc1ccc2c(c1)C1CN(C)CCC1N2S(=O)(=O)c1ccccc1 (configuration not stated)	i
CCC(C)(C)n1nnnc1C(c1ccc(OC)c(OC)c1)N1CCN(c2ccccc2)CC1 (configuration not stated)	0.4
O=C(NCCN1CCN(c2ccccc2F)CC1)C1CC(=O)N(C2CCCC2)C1 (configuration not stated)	i
CCOc1cc(C(=O)OCC(=O)c2c(N)n(C)c(=O)n(C)c2=O)cc(OCC)c1OCC	i
O=C(Nc1ccccc1C(=O)O)c1cncc(Br)c1	0.3
O=C1NC2=C(CCc3ccccc32)C(c2ccc(Br)cc2)N1 (configuration not stated)	70*
N#Cc1ccc(-n2c(-c3ccccc3)nnc2-c2ccccc2)cc1C#N	0.1
O=C(C1CCCO1)N1CCC(O)(c2ccccc2)CC1 (configuration not stated)	0.4
COc1ccc(C2N3CC4(C)CN2CC(C)(C3)C4=O)cc1OC (configuration not stated)	0.4
CC1=CC(c2ccccc2)n2nc(N3C(=O)C4CC=CCC4C3=O)nc2N1 (configuration not stated)	i
COc1cccc(N2CCN(C(=S)NCc3ccco3)CC2)c1	0.1
COc1ccccc1NC(=O)CN1C(=O)CCS(=O)(=O)c2ccccc21	0.0
Cc1ccc(-c2cc(C(F)F)nc(NCc3cccnc3)n2)cc1	i
O=C(Nc1ccc2c(c1)OCO2)c1cc(C2CC2)on1	i
Cc1noc(C(=O)Nc2ccc3c(c2)OCO3)c1Cl	1.2
Nn1c(SC/C=C/c2ccccc2)nnc1-c1cccnc1	0.9
COc1cccc(NC(=O)C(NC2CCCC2)c2ccccc2)c1 (configuration not stated)	i
Cc1sc2ncn3c(C)nnc3c2c1C	0.5
CC1(C)NC(=O)N(CC(O)CN2CCCCC2)C1=O (configuration not stated)	i
O=C(CSc1nc(-c2ccco2)cc(C(F)(F)F)n1)NCCCn1ccnc1	1.0
COc1ccc(-c2noc(CSc3nc(N)c(-c4ccccc4)c(=O)[nH]3)n2)cc1OC	i
O=S1(=O)N=C(Nc2ccc(O)c(CN3CCCCC3)c2)c2ccccc21	i
CCCOc1ccc(CSC2=NCCN2)cc1[N+](=O)[O-]	i
Cc1ccc(C(=O)COC(=O)c2ccc3c(c2)C(=O)N(c2cccc4ncccc24)C3=O)cc1C	i
O=S(=O)(Cc1ccccc1)Nn1cnnc1	i
Clc1ccc2[nH]c3c(NCCCN4CCOCC4)ncnc3c2c1	i
O=C(O)Cn1c(P(=O)(O)c2ccccc2)nc2ccccc21	2.5
Nc1cc(Cl)ccc1Oc1ccccc1	i
c1ccc(CSc2ncccn2)cc1	i
COc1ccc(Cl)cc1NC(=O)Cn1cccc1	i
O=S(=O)(/N=C/N1CCOCC1)c1ccc(Cl)cc1	i
COC(=O)c1cccc(NC(=O)c2nn(C)c(=O)c3ccccc23)c1	i
CCc1ccc(NC(=O)c2cccnc2)cc1	i
OC1CN=C2Sc3ccccc3N2C1 (configuration not stated)	i
O=C1c2ccccc2C(O)(Cc2ccccc2)N1Cc1ccco1 (configuration not stated)	i

Screens: PubChem BioAssay, SRMLSC
